Sa RN4220 lethal = S. aureus RN4220 growth inhibition | OD600, 16 h | inhibition, % (test concentration not listed) | 330,000 tested, 0.33% active | AID 1259311;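 active = z-score of -3 or lower and OD600 up to 0.18 on both plates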;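 note: plate controls were untreated cells for no effect and reference antibiotic for full effect; stock transfer was 100 nL into about 80 µL; one replicate is shown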
ugtP null kill = kills S. aureus RN4220 lacking UgtP | S. aureus RN4220 ugtP deletion, OD600 growth, 16 h; some inactives read as strong as hits | growth inhibition, % (concentration not given with the values) | 330,000 tested, 0.54% active | AID 1259309;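 active = z-score under -3 and OD600 up to 0.15 on both plates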;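 note: plate controls were untreated wells for no effect and antibiotic for full effect; wells of about 80 µL received 100 nL stock; the first replicate is given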
Active calls of the source: *. An excerpt; rates above refer to the full screens.

COc1ccc(C=NN2CCN(c3ccncc3S(=O)(=O)N3CCCCC3)CC2)cc1
  Sa RN4220 lethal: 1.5 | ugtP null kill: 6.9
NC(=NOC(=O)c1ccccc1[N+](=O)[O-])c1cccnc1
  Sa RN4220 lethal: 0.3 | ugtP null kill: 1.0
CC(C)C1S/C(=N/N=Cc2cccs2)NC1=O (centres undefined)
  Sa RN4220 lethal: -1.6 | ugtP null kill: 9.9
Cc1ccc(-n2ncc(C#N)c2N=CN2CCN(C)CC2)cc1
  Sa RN4220 lethal: 3.7 | ugtP null kill: 4.8
CN1C(=O)N(C)C2(c3ccccc3)Nn3c(sc(=Cc4ccccc4F)c3=O)=NC12c1ccccc1 (centres undefined)
  Sa RN4220 lethal: -0.4 | ugtP null kill: 5.1
COc1ccc(C=NNC(=O)c2cc(OCC(F)(F)F)ccc2OCC(F)(F)F)cc1
  Sa RN4220 lethal: 0.6 | ugtP null kill: 1.3
C=CCn1c(COc2ccccc2)nnc1SCC(=O)NN=Cc1ccc(C)cc1
  Sa RN4220 lethal: 0.7 | ugtP null kill: -6.6
CCCOc1c(Br)cc(C=NO)cc1OC
  Sa RN4220 lethal: -5.2 | ugtP null kill: 85.8*
CN(C)c1ccc(C=NNC(=O)c2csnn2)cc1
  Sa RN4220 lethal: -0.7 | ugtP null kill: -2.2
Cc1cc(C)c(C=NNC(N)=O)c(C)c1C=NNC(N)=O
  Sa RN4220 lethal: 0.6 | ugtP null kill: -0.6
CC(C)c1ccc(C=NNC(=O)CN(c2cccc(Cl)c2Cl)S(C)(=O)=O)cc1
  Sa RN4220 lethal: -11.2 | ugtP null kill: 0.4
CCSc1ncc(C=NNc2ccc([N+](=O)[O-])cc2)n1C
  Sa RN4220 lethal: -0.9 | ugtP null kill: 2.8
CCCCCOc1ccc(Br)cc1C(C)=NNC1=NCCN1
  Sa RN4220 lethal: -0.6 | ugtP null kill: -17.2
Cc1ccccc1OCCOc1cccc(C=NNC(=O)Cc2nnc(N)s2)c1
  Sa RN4220 lethal: 1.8 | ugtP null kill: 10.4
CCCOc1c(Cl)cc(C=NO)cc1OCC
  Sa RN4220 lethal: -2.6 | ugtP null kill: 93.3*

Reprinted from the part before: 2 compounds, then new ones.
Cc1ccccc1OCCOc1cccc(C=NNC(=O)Cc2nnc(N)s2)c1
  Sa RN4220 lethal: 1.8 | ugtP null kill: 10.4
CCCOc1c(Cl)cc(C=NO)cc1OCC
  Sa RN4220 lethal: -2.6 | ugtP null kill: 93.3*
O=C(NN=Cc1ccc(Cl)s1)c1cccs1
  Sa RN4220 lethal: 2.4 | ugtP null kill: -5.1
COc1ccc(C=NNC(=O)Cn2c(Cc3ccc(OC)c(OC)c3)nc3ccccc32)cc1
  Sa RN4220 lethal: 1.8 | ugtP null kill: -1.3
O=C(NN=Cc1ccc(O)cc1)c1ccc(COc2cc(Cl)ccc2Cl)o1
  Sa RN4220 lethal: 4.4 | ugtP null kill: 35.6
C(/C=C/c1ccco1)=NN1CCN(c2ccccc2)CC1
  Sa RN4220 lethal: -4.3 | ugtP null kill: 12.9
COc1ccccc1N(CC(=O)NN=Cc1ccc(OCC(=O)NCc2ccco2)cc1)S(=O)(=O)c1ccc(C)cc1
  Sa RN4220 lethal: -8.5 | ugtP null kill: -16.8
CCOc1cc(C=NNS(=O)(=O)c2ccccc2)ccc1OS(=O)(=O)c1ccc(C)cc1
  Sa RN4220 lethal: 4.4 | ugtP null kill: -9.5
Nc1c(S(=O)(=O)c2ccccc2)c2nc3ccccc3nc2n1N=Cc1cccc(O)c1
  Sa RN4220 lethal: 47.4 | ugtP null kill: 28.7
O=C(NN=Cc1c[nH]c2ccccc12)c1ccn(Cc2ccc(Cl)cc2)n1
  Sa RN4220 lethal: 3.4 | ugtP null kill: -14.6
CCn1nc(C)c(C=NNC(=O)c2ccoc2C)c1C
  Sa RN4220 lethal: 0.3 | ugtP null kill: 7.4
CC(=NOCC(=O)Nc1ccc(C)cc1C)c1cccs1
  Sa RN4220 lethal: 1.1 | ugtP null kill: 6.2
Cc1ccc(-c2n[nH]c(=S)n2N=C/C=C/c2ccccc2[N+](=O)[O-])cc1
  Sa RN4220 lethal: 0.5 | ugtP null kill: 7.2
C=CCc1cc(C=NNC(=O)CSc2nnc(CCCc3ccc(OC)c(C)c3)o2)cc(OC)c1O
  Sa RN4220 lethal: -1.4 | ugtP null kill: -8.8
COc1ccc(C=NNS(=O)(=O)c2ccc(C)cc2)cc1OC(=O)c1ccccc1
  Sa RN4220 lethal: -10.5 | ugtP null kill: 7.7
Cn1cccc1C=Nn1c(-c2ccc(Cl)cc2)n[nH]c1=S
  Sa RN4220 lethal: 2.1 | ugtP null kill: -4.4
NC(COc1ccc(C(=O)O)cc1)=NO
  Sa RN4220 lethal: 0.9 | ugtP null kill: -5.3

COc1ccc(C=NNC(=O)CN2CCS(=O)(=O)CC2)cc1
  Sa RN4220 lethal: -2.0 | ugtP null kill: -2.8
CN1CCN(C(=NS(=O)(=O)c2ccc(F)cc2)c2ccccc2)CC1
  Sa RN4220 lethal: 0.0 | ugtP null kill: -1.9
COc1ccc(CN2C(=O)c3ccccc3C(C=NOCc3ccc(F)cc3)C2=O)cc1 (centres undefined)
  Sa RN4220 lethal: 20.7 | ugtP null kill: 5.5
C(=Nn1cnnc1)c1nc2ccccc2[nH]1
  Sa RN4220 lethal: -2.0 | ugtP null kill: 6.8
CCCCC(O)=NS(=O)(=O)c1ccc(N=NN(C)C)cc1
  Sa RN4220 lethal: 1.2 | ugtP null kill: 2.4
CCn1cc(C=NNS(=O)(=O)c2ccc(C)cc2)c(C)n1
  Sa RN4220 lethal: -0.9 | ugtP null kill: 4.3
C=CCn1c(COc2ccc(CC)cc2)nnc1SCC(O)=C(C#N)c1nc2ccccc2[nH]1
  Sa RN4220 lethal: 1.1 | ugtP null kill: 7.8
C=CCn1c(CNc2ccc(C)cc2)nnc1SCC(=O)NN=Cc1ccc(O)cc1O
  Sa RN4220 lethal: -1.2 | ugtP null kill: -2.4
Nc1nnc(CC(=O)NN=Cc2cccc(OCCOc3ccccc3)c2)s1
  Sa RN4220 lethal: 0.8 | ugtP null kill: 12.2
COc1cc(C(=O)ON=C2C=CC(=O)C(C)=C2C)cc(OC)c1OC
  Sa RN4220 lethal: 1.4 | ugtP null kill: -1.8
COc1cccc(OCc2cc(C=NNC(=O)c3nc(Cl)c(Cl)c(N)c3Cl)ccc2OC)c1
  Sa RN4220 lethal: -0.8 | ugtP null kill: -6.9
CC(C)Cc1ccc(C(=NO)C(=O)O)s1
  Sa RN4220 lethal: 0.8 | ugtP null kill: 9.5
CC(CC1(O)C(=O)N(Cc2ccccc2)c2ccccc21)=NO (centres undefined)
  Sa RN4220 lethal: 2.2 | ugtP null kill: 0.2
CCN1C(=CC(=O)c2ccco2)Sc2ccccc21
  Sa RN4220 lethal: 17.3 | ugtP null kill: -15.7
COc1ccc(C(=O)NN=C(C)Cn2nc([N+](=O)[O-])cc2C)cc1
  Sa RN4220 lethal: -0.8 | ugtP null kill: -6.0

C=CCN1C(=O)C(Cc2ccc(F)cc2)SC1=NN=Cc1cccs1 (centres undefined)
  Sa RN4220 lethal: -1.6 | ugtP null kill: 11.1
ON=Cc1cc(Br)ccc1OCc1cccc(F)c1
  Sa RN4220 lethal: 1.6 | ugtP null kill: 82.5*
Cc1ccc(NC(=O)CC2SC(=Nc3nccs3)N(C)C2=O)cc1C (centres undefined)
  Sa RN4220 lethal: -0.6 | ugtP null kill: 1.6
COC(=O)NN=C(C)c1ccc(Br)cc1
  Sa RN4220 lethal: 0.7 | ugtP null kill: 6.5
NC(CCCN1CCCCC1)=NO
  Sa RN4220 lethal: 0.8 | ugtP null kill: 0.6
CC1CC(=NNC(=S)NC(C)C)CC(C)(C)C1 (centres undefined)
  Sa RN4220 lethal: 2.7 | ugtP null kill: 15.2
COC(=O)[C@@]12OC[C@]34[C@H]([C@@H](O)[C@@H]1O)[C@@]1(C)C(=O)C(O[C@@H]5OC(CO)[C@@H](O)[C@@H](O)[C@@H]5O)=C[C@@H](C)[C@@H]1C[C@H]3OC(=O)[C@H](OC(=O)/C=C(\C)C(C)(C)OC(C)=O)[C@@H]24 (some centres undefined)
  Sa RN4220 lethal: 6.8 | ugtP null kill: -6.7
CCn1c2ccc(C(C)=NO)cc2c2cc(C(C)=NO)ccc21
  Sa RN4220 lethal: -6.8 | ugtP null kill: 7.7
CC(C)(C)C(=O)C=c1[nH]c(=O)c(=Cc2ccc(F)cc2)s1
  Sa RN4220 lethal: 1.6 | ugtP null kill: -2.2
COc1ccc(-c2nn(-c3ccccc3)cc2C=NNC(=O)c2ccc(Br)o2)cc1
  Sa RN4220 lethal: -0.6 | ugtP null kill: 16.9
Cc1ccc(C=Nn2c(-c3cccs3)n[nH]c2=S)cc1
  Sa RN4220 lethal: -2.9 | ugtP null kill: -17.1
CCN1C(=O)CSC1=Nc1nccs1
  Sa RN4220 lethal: 0.4 | ugtP null kill: 0.9
COc1cc(C=c2sc(=C(C#N)C(=O)N3CCCC3)n(-c3ccccc3)c2=O)ccc1O
  Sa RN4220 lethal: 2.1 | ugtP null kill: 0.6
Cc1n[nH]c(=S)n1N=Cc1ccc(-c2ccccc2[N+](=O)[O-])o1
  Sa RN4220 lethal: 5.7 | ugtP null kill: -1.7
CCOC(=O)NN=Cc1cccc(Cl)c1Cl
  Sa RN4220 lethal: 4.3 | ugtP null kill: 5.7

COc1ccc(C2C(C(=O)OC(C)C)=C(C)N=c3sc(=Cc4cccs4)c(=O)n32)cc1 (centres undefined)
  Sa RN4220 lethal: -9.3 | ugtP null kill: 0.2
CCOc1ccc(N(CC(=O)NN=Cc2cc([N+](=O)[O-])ccc2Cl)S(C)(=O)=O)cc1
  Sa RN4220 lethal: -5.4 | ugtP null kill: 8.2
Cn1c(Cl)c(C=NOC(=O)c2cccc(Cl)c2)c2ccccc21
  Sa RN4220 lethal: 5.8 | ugtP null kill: 10.8
Nc1nonc1-n1nnc(C(=O)NN=Cc2cccc(F)c2)c1CN1CCCC1
  Sa RN4220 lethal: 8.2 | ugtP null kill: -10.8
ON=Cc1ccc(OCC(O)COc2ccc(C=NO)cc2)cc1 (centres undefined)
  Sa RN4220 lethal: 5.4 | ugtP null kill: -2.9
O=C(NN=Cc1cc(Br)cs1)C1COc2ccccc2O1 (centres undefined)
  Sa RN4220 lethal: -3.4 | ugtP null kill: 4.1
CN(C)c1ccc(C=NNC(=O)CN(c2ccccc2Cl)S(C)(=O)=O)cc1Br
  Sa RN4220 lethal: -2.0 | ugtP null kill: -2.6
Cc1ccc(Oc2ncccc2C=NOCc2ccc(Cl)c(Cl)c2)cc1
  Sa RN4220 lethal: 3.5 | ugtP null kill: 16.0
Cn1c(N=Cc2c[nH]c3ccccc23)nc2ccccc21
  Sa RN4220 lethal: 2.0 | ugtP null kill: 2.9
COc1ccc(C=Nn2c(N)nc(-c3ccccc3)c2-c2ccccc2)cc1
  Sa RN4220 lethal: 38.2 | ugtP null kill: 26.5
CC(=NO)c1ccccn1
  Sa RN4220 lethal: 0.6 | ugtP null kill: -4.2
COc1ccc(O)c(C=NNc2nc(Nc3ccccc3)nc(-n3nc(C)cc3C)n2)c1
  Sa RN4220 lethal: 7.3 | ugtP null kill: -5.3
O=C(NN=Cc1ccc2ccccc2c1)c1ccc(COc2ccc3c(c2)CCC3)o1
  Sa RN4220 lethal: -3.8 | ugtP null kill: 9.0
O=S(=O)(ON=C1CCCc2ccccc21)c1ccc(Cl)cc1
  Sa RN4220 lethal: -0.6 | ugtP null kill: 3.5
CCc1ccc(N2CC(C(=O)NN=Cc3ccccc3)CC2=O)cc1 (centres undefined)
  Sa RN4220 lethal: -0.1 | ugtP null kill: 10.4

COc1ccccc1N1CCN(N=C/C=C\c2ccco2)CC1
  Sa RN4220 lethal: 0.4 | ugtP null kill: 73.1
COc1ccc(C=NN2CCN(C)CC2)cc1OC
  Sa RN4220 lethal: 0.1 | ugtP null kill: -1.2
Cc1ccsc1C=NN1CCN(C2c3ccccc3-c3ccccc32)CC1
  Sa RN4220 lethal: -8.6 | ugtP null kill: 18.7
CCCOc1ccc(C=c2sc3nc(-c4ccco4)nn3c2=O)cc1OCC
  Sa RN4220 lethal: -3.1 | ugtP null kill: -0.8

Some of the entries so far, in markdown:
| structure | Sa RN4220 lethal | ugtP null kill |
| --- | --- | --- |
| O=C(NN=Cc1cc(Br)cs1)C1COc2ccccc2O1 (centres undefined) | -3.4 | 4.1 |
| CN(C)c1ccc(C=NNC(=O)CN(c2ccccc2Cl)S(C)(=O)=O)cc1Br | -2.0 | -2.6 |
| Cc1ccc(Oc2ncccc2C=NOCc2ccc(Cl)c(Cl)c2)cc1 | 3.5 | 16.0 |
| Cn1c(N=Cc2c[nH]c3ccccc23)nc2ccccc21 | 2.0 | 2.9 |
| COc1ccc(C=Nn2c(N)nc(-c3ccccc3)c2-c2ccccc2)cc1 | 38.2 | 26.5 |
| CC(=NO)c1ccccn1 | 0.6 | -4.2 |
| COc1ccc(O)c(C=NNc2nc(Nc3ccccc3)nc(-n3nc(C)cc3C)n2)c1 | 7.3 | -5.3 |
| O=C(NN=Cc1ccc2ccccc2c1)c1ccc(COc2ccc3c(c2)CCC3)o1 | -3.8 | 9.0 |
| O=S(=O)(ON=C1CCCc2ccccc21)c1ccc(Cl)cc1 | -0.6 | 3.5 |
| CCc1ccc(N2CC(C(=O)NN=Cc3ccccc3)CC2=O)cc1 (centres undefined) | -0.1 | 10.4 |
| COc1ccccc1N1CCN(N=C/C=C\c2ccco2)CC1 | 0.4 | 73.1 |
| COc1ccc(C=NN2CCN(C)CC2)cc1OC | 0.1 | -1.2 |
| Cc1ccsc1C=NN1CCN(C2c3ccccc3-c3ccccc32)CC1 | -8.6 | 18.7 |
| CCCOc1ccc(C=c2sc3nc(-c4ccco4)nn3c2=O)cc1OCC | -3.1 | -0.8 |

Screening results deposited in PubChem BioAssay by ICCB-Longwood Screening Facility, Harvard Medical School.
